RanGTP-Impb inh: inhibitors of RanGTP-importin-beta interaction, primary screen, biochemical, FRET, CFP-Ran, YFP-importin-beta, homogeneous. 300,000 compounds, 1.1% hits. AID 2216. inhibition, % (test concentration not listed). cell-free CFP-Ran/YFP-importin-beta FRET ratio;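 active = most replicates above 15%; inconclusive = exactly half above 15%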;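 also: 0% = DMSO wells and 100% = Ran loaded with GDP instead of GTP; wells of about 40 µL received 100 nL stock; the first replicate is given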
Ecoli rRNA inh: inhibits bacterial ribosomal RNA function over humanized ribosomes; 350,000 compounds, 1.6% hits; E. coli WT GFP vs humanized-ribosome RFP mutants, fluorescence, 24 h; hits give low values; DMSO median 0, no signal -100; GFP signal change (wild-type ribosome), % (test concentration not listed);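 active = significant combined selectivity score with lowered wild-type GFP, culture density cut under 30%, mutant RFP and density less affected; inactive = any of these conditions unmet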; also: one replicate is shown; some compounds called inactive have numbers as strong as hits
T cruzi inh: blocks replication of Trypanosoma cruzi. T. cruzi beta-gal in NIH3T3, luminescence, 90 h. inhibition, % (no concentration beside the values). 300,000 compounds, 1.4% hits. AID 1885;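 active = mean inhibition across valid replicates above about 55%, limit read from the data; inconclusive = mean below that limit but half or more replicates reach it; inactive = mean below it, under half of replicates reach it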;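 also: signal also drops with host cell toxicity which is not excluded here; 0% = plate median of DMSO wells and 100% = zero luminescence signal; higher percent means less beta-gal luminescence so fewer parasites; stock transfer was 50 nL into about 50 µL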
Beta apoptosis: beta cell apoptosis inhibition; INS-1E cytokine-induced death, ATP luminescence, 48 h; percent of positive-control rescue, neutral wells zero; protection from apoptosis, % (no concentration beside the values); 300,000 compounds, 0.8% hits;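 active = all replicates at 75% or more, or half of them and the mean; inconclusive = half reach 75% but not the mean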;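 also: 0% = cytokine-treated negative control wells and 100% = positive control rescue; higher means more ATP so stronger rescue from cytokine killing; wells of about 40 µL received 100 nL stock; the first replicate is given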
AF4-AF9 inh: MLL-AF4/AF9 protein interaction inhibition. P42568. AlphaScreen, biotin-AF4 peptide binding to FLAG-AF9. inhibition, % at 10 µM. 350,000 compounds, 0.47% hits;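 active = every replicate reaching a set inhibition limit, whatever the replicate mean, cut at about 25% in these data; inconclusive = mean inhibition reaches that limit but some replicates miss it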;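 also: 0% = plate neutral control median and 100% = total signal loss; the record names both 10 and 1 µM as test concentration; the first replicate is given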
Target sequence (P42568 whole entry, looked up): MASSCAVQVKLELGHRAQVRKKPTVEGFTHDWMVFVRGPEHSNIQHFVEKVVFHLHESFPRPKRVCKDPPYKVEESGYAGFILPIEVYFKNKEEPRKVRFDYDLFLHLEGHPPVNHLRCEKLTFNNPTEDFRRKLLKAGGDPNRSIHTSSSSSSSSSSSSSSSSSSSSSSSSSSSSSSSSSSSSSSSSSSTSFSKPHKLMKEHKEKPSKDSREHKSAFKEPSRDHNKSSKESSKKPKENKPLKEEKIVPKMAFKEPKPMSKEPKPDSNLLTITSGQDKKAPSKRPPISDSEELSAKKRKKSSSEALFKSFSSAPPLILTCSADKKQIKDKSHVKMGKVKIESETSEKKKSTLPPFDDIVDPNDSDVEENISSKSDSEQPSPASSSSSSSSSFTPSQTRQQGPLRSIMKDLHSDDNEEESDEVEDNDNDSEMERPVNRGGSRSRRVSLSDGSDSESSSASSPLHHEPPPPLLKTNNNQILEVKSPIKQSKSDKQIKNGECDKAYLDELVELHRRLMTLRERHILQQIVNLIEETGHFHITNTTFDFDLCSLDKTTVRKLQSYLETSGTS
Bfl-1 A1 inh: inhibitors of the anti-apoptotic protein A1, read as caspase activation; MEF A1-2A-BIM cells, Caspase-Glo 3/7 luminescence, 3 h; percent of clofoctol response, vehicle zero; caspase activation, % (concentration not given with the values); 330,000 compounds, 0.066% hits;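 active = over half of replicate activation scores above 10%, or exactly half above 10 with the replicate mean above 10; inconclusive = replicate mean below 10 yet half the replicates above 10; inactive = over half of replicates below 10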;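 also: wells of about 30 µL received 50 nL stock; many hits fall short of the cut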
Vif TR-FRET: inhibitors of Vif binding to APOBEC3G peptide, primary screen, biochemical, TR-FRET, GST-Vif 1-94, biotin-A3G peptide, dose response retest (AID 1117319). TR-FRET GST-Vif / biotin-A3G peptide binding; higher % means a stronger effect; test concentration not given here; strong numbers were not always called active. one-dose inhibition, %; IC50 in µM for titrated hits. 260,000 compounds, 0.57% hits;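 active = above the screen mean plus three standard deviations and confirmed in dose response; inconclusive = results disagree or hit not tested in dose response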;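 also: Vif residues 1-94 fused to GST binding biotinylated APOBEC3G peptide 110-148; 0% = full assay without inhibitor and 100% = GST in place of GST-Vif; retest series ran down from 100 µM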
Calb FLC: affects C. albicans growth with fluconazole; AID 1979; C. albicans CaCi-2 (fluconazole-resistant clinical isolate) + fluconazole, Alamar Blue growth, 48 h; growth inhibition, % (concentration not given with the values); 300,000 compounds, 0.57% hits;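 active = most replicates above 75%; inconclusive = exactly half above 75%; inactive = most below 75%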;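 also: all wells also contain fluconazole at 8 µg/ml as a sub-toxic cotreatment; 0% = median of DMSO wells and 100% = median of geldanamycin control wells; wells of about 8 µL received 7.5 nL stock; the first replicate is given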
Ecoli rRNA inh OD600: recorded beside Ecoli rRNA inh, whose call it bears; OD600 change, %; measured here: OD600 growth;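 optical density of the mix in the first replicate; 0 = DMSO median and -100 = no signal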
Ecoli rRNA inh RFP: further read-out of Ecoli rRNA inh, marked with its call; RFP signal change, %; measured here: RFP humanized mutant strains;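 first replicate; 0 = DMSO median and -100 = no signal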
Active calls of the source: *; u = inconclusive; x = no result given; & = joins results of further samples. Only part of the results is shown; the hit share may differ from the screen's.

SMILES	RanGTP-Impb inh	Ecoli rRNA inh	Ecoli rRNA inh OD600	Ecoli rRNA inh RFP	T cruzi inh	Beta apoptosis	AF4-AF9 inh	Bfl-1 A1 inh	Vif TR-FRET	Calb FLC
COc1cccc(CNC(=O)C(Cc2ccccc2)n2cccc2)c1 (stereo not given)	3.8	-7.4	-16.6	5.4	6.4	-1.8	2.0	0.2	11.0%	-8.1
COc1cccc(Oc2nccc(N(C)C)c2C#N)c1	-0.6	8.0	4.1	0.6	3.3	-5.1	-0.6	-0.1	-4.7%	-8.3
CCCCC1=CC2=CC(=O)C(C)(OC(=O)CC)C(=O)C2=CN1Cc1ccc2c(c1)OCO2 (stereo not given)	-1.0	10.6	5.3	0.2	10.4	-2.1	x	-0.5	u	15.4
Cn1c(=O)[nH]c(=O)c2c1ncn2CCN1CCOCC1	-1.4	x	x	x	-6.7	-4.4	-14.6	0.8	u	0.1
CCn1c2c(c(=N)c3ccccc31)CCC2	-0.9	31.4	11.1	-1.5	47.5	31.2	-9.2	0.6	x	-5.0
N#C/C(=C\N1CCOCC1)c1ccccc1	0.8	x	x	x	-12.8	-2.9	x	-0.3	9.3%	14.1
CCOc1ccc(N2C(=O)/C(=C/c3ccco3)N(C)C2=S)cc1	u	x	x	x	4.0	15.5	x	0.3	u	-6.6
CC(C)CCNC(=O)C(c1ccco1)N(Cc1cccs1)C(=O)Cn1nnc2ccccc21 (stereo not given)	2.7	x	x	x	10.1	x	x	x	5.9%	0.2
CC(C)(C)NC(=O)C1CC1(c1ccccc1)c1ccccc1 (stereo not given)	3.3	7.7	7.1	-4.3	4.5	1.5	-2.1	-0.2	-1.7%	-11.2
COc1cccc(NC(=O)CSc2nc3ccccc3nc2N2CCOCC2)c1	-1.8	-3.7	-12.1	1.2	-3.0	1.5	17.2	-0.1	x	0.5
CC(=O)c1c(C)[nH]c(C(=O)NNC(=O)c2ccc(Br)cc2)c1C	x	3.5	-17.5	0.5	x	2.7	-0.5	-0.2	x	x
COc1cc(/C=N/NC(=O)Cc2ccccc2)ccc1Oc1ccc([N+](=O)[O-])cc1[N+](=O)[O-]	1.1	14.4	17.9	-1.8	6.7	7.1	0.3	-0.5	18.8%	-8.0
CCOc1ccc(C(=S)N2CCCC2)cc1OCC	4.9	12.2	8.7	0.0	-3.1	2.7	-16.8	-0.1	-4.0%	1.7
COc1ccccc1NC(=O)C1CCCN(c2nc(C)cc(C)n2)C1 (stereo not given)	1.9	x	x	x	-9.8	0.2	x	1.8	4.6%	9.9
CCCCCCCCCSc1n[nH]c(N)n1	5.4	x	x	x	-16.0	-3.0	x	1.4	19.0%	-9.0
Cc1cc(Cl)c(C)c(S(=O)(=O)N2CCN(CC(=O)N3CCOCC3)CC2)c1Cl	x	-4.8	-14.6	1.2	x	1.0	2.6	-0.1	-6.3%	x
O=C(Nc1ccccn1)C1CCCN(c2ncnc3c2nc2n3CCCCC2)C1 (stereo not given)	0.7	-25.7	-9.0	0.4	-9.7	-2.8	-9.3	-0.5	x	7.4
c1coc(-c2nc(-c3ccncc3)no2)c1	-0.1	x	x	x	-11.4	7.1	x	1.5	1.0%	2.5
CCn1c(CNC(=O)C(C)(C)C)nc2ccccc21	-1.8	6.4	6.2	-0.2	-4.3	0.7	-13.1	0.2	17.3%	-10.6
CCOc1ccc(NC(=O)N2CCC(n3nnc4cc(C)ccc43)CC2)cc1	-1.3	x	x	x	-1.1	x	x	-0.2	1.0%	-6.0
COc1ccc(NC(C)=O)cc1NC(=O)CN1CCN(c2ccccn2)CC1	-0.3	x	x	x	2.9	-5.4	x	0.0	1.4%	-1.0
COc1ccccc1OCc1ccc(C(=O)NCCN(C)C)o1	u	x	x	x	-11.6	-4.1	x	1.1	8.3%	-3.9
O=c1c2c3n(c(=S)nc2[nH]n1-c1ccccc1)CCCCC3	-4.6	x	x	x	-4.4	-1.5	x	0.0	5.1%	-2.9
CN(C)C(=O)C(=O)c1cccn1-c1ccccc1C#N	1.4	x	x	x	-5.2	-0.8	x	0.6	0.8%	-2.8
O=c1c2[nH]c3ccc(F)cc3c2ncn1CCC1=CCCCC1	-1.8	2.2	-1.7	1.3	1.6	0.7	12.1	0.0	-8.4%	-0.5
CCOc1ncccc1C(=O)Nc1ccc(C(=O)Nc2ccc(OC)cc2)cc1	x	-0.2	10.0	-2.3	x	4.0	-0.7	-0.8	x	x
COC(=O)[C@@H]1C[C@@]2(O)[C@@H](O)[C@@H](O)[C@@H](O)C[C@H]2N1CC(c1ccccc1)c1ccccc1	-3.4	0.6	-3.2	6.1	-16.4	3.5	-0.1	0.0	x	-11.7
COc1ccc(N2CCN(C(=O)Cn3nnc(-c4ccccc4N)n3)CC2)cc1	-0.5	-12.0	-2.3	2.3	8.7	-0.9	2.6	0.7	-7.0%	-24.7
CCc1nnc(NS(=O)(=O)c2ccc(NC(=O)c3cccc(OC)c3)cc2)s1	0.1	-7.4	-6.3	-1.2	0.6	-0.5	-0.5	0.4	x	-0.9
N#Cc1ccccc1S(=O)(=O)Nc1ccc2c(c1)C(=O)OC2	-3.3	x	x	x	-7.0	-1.5	-0.9	0.6	0.9%	0.2
O=C(NCCCN1CCC(Cc2ccccc2)CC1)c1ccc2nc(N3CCOCC3)sc2c1	3.6	-2.5	-2.4	-1.3	33.2	-2.3	7.1	-0.3	8.0%	-8.2
O=C1CC(/C=C/c2ccc([N+](=O)[O-])cc2)=Nc2ccccc2N1	-3.0	5.2	1.7	0.4	16.0	3.9	-20.3	0.3	1.0%	9.0
CN(C(=O)COC(=O)CCCN1C(=O)c2cccc3cccc(c23)C1=O)C1CCS(=O)(=O)C1 (stereo not given)	0.9	-0.7	-2.6	-3.7	-2.8	3.0	-18.1	-1.3	4.6%	6.4
Cc1ccc(C)c(NC(=O)CCC(=O)NNC(=O)C(c2ccccc2)c2ccccc2)c1	-0.4	x	x	x	-8.1	-4.0	x	0.0	-1.0%	-34.9
CCC(=O)N1N=C(c2ccccc2)CC1c1ccc([N+](=O)[O-])cc1 (stereo not given)	0.4	-8.6	-12.1	-7.5	9.4	-1.9	-13.5	-0.7	-4.3%	0.6
Cn1cnnc1SCC(=O)N/N=C/c1ccc(OCC(N)=O)cc1	2.2	4.0	5.1	-0.8	-10.8	-3.5	0.9	0.0	x	-6.1
O=C(NC1CCCCC1)C(c1ccccn1)N(C(=O)c1csnn1)C1CC1 (stereo not given)	u	15.2	12.1	1.7	-9.1	x	-0.4	0.8	x	12.7
Cc1cc(C(=O)N2CCN(Cc3ccccc3)CC2)ccc1[N+](=O)[O-]	2.5	-4.6	7.3	-1.5	-0.8	2.9	-4.9	0.5	x	4.8
Cc1ccc(O)c(Nc2nc(-c3ccccc3)nc3ccccc23)c1	-2.8	1.3	10.9	3.0	-6.8	-0.7	-1.4	-0.3	5.6%	-9.1
O=C(CSc1nnc(COc2ccc(F)cc2)o1)N1c2ccccc2CCc2ccccc21	4.3	x	x	x	56.7*	-2.4	x	-0.8	-6.8%&-4.5%	-5.1
CC1(C)Cc2c(cnn2-c2ccc(F)cc2)C(NC(=O)CN2CCCC2=O)C1 (stereo not given)	-3.3	8.7	9.6	-0.1	14.5	-1.0	-11.7	0.5	-2.8%	-5.8
O=C(Nc1c(C(=O)N2CCN(c3ccccn3)CC2)oc2ccccc12)c1cccc([N+](=O)[O-])c1	-0.6	-8.9	-2.0	-2.1	14.5	3.3	-6.1	0.3	x	3.5
COC(=O)c1c(NC(=O)CCl)sc(C(=O)N2CCOCC2)c1C	1.9	-1.4	2.5	-0.7	11.1	-18.9	1.3	0.1	x	-3.2
O=C(c1ccc(=O)[nH]n1)N1CCN(S(=O)(=O)c2ccc3ccccc3c2)CC1	2.8	-1.5	-10.3	2.3	-7.1	8.2	2.1	0.8	x	27.8
O=C(O)CCSc1nc2ccccc2c(=O)[nH]1	5.6	x	x	x	-13.7	7.0	x	0.9	15.2%	-10.6
CCCCN(C(=O)C(C)Oc1ccc(Br)cc1)c1c(N)n(CC(C)C)c(=O)[nH]c1=O (stereo not given)	x	5.8	4.4	-0.2	x	-1.1	-0.4	-0.9	-3.8%	x
CC1c2[nH]c3ccccc3c2CCN1C(=O)Nc1ccccc1 (stereo not given)	0.0	x	x	x	-4.6	2.4	x	-0.7	-0.5%&21.2%	-19.3
Cc1noc2c1C(c1ccc(N(C)C)cc1)C1=C(CC(C)(C)CC1=O)N2 (stereo not given)	-2.5	x	x	x	14.0	-2.2	x	-0.5	2.6%	-12.7
O=C(COC(=O)C1COc2ccccc2O1)Nc1ccccc1OC(F)F (stereo not given)	x	3.1	18.1	2.1	x	-4.3	-1.7	0.2	x	x
COc1ccc(/C=N/Nc2ncc(C(F)(F)F)cc2Cl)cc1OC	0.5	18.1	-3.0	-2.4	-3.0	x	-20.3	0.1	x	-0.5

(more compounds)
SMILES	RanGTP-Impb inh	Ecoli rRNA inh	Ecoli rRNA inh OD600	Ecoli rRNA inh RFP	T cruzi inh	Beta apoptosis	AF4-AF9 inh	Bfl-1 A1 inh	Vif TR-FRET	Calb FLC
Cc1ccc(-c2ccc(S(=O)(=O)NCC3CCCO3)cc2)cc1 (stereo not given)	3.5	-19.1	-10.8	-4.3	-12.3	6.8	-2.1	-0.2	x	-30.3
COc1ccc(-c2cn(/N=C/c3ccc(Cl)cc3Cl)c(N)n2)cc1	-3.6	-13.2	-21.5	2.1	49.1	-9.7	x	0.1	-6.1%	22.5
c1cnc2ccc(C(c3nnnn3C3CCCCC3)N3CCN(C4CCCCC4)CC3)cc2c1 (stereo not given)	u	x	x	x	69.4*	7.1	x	1.1	x	-13.0
C(=N\n1cncn1)/c1ccc(N2CCOCC2)cc1	-0.2	x	x	x	-24.1	-1.5	x	1.1	-3.9%	-16.8
CC(=O)N1CSCC1C(=O)NNS(=O)(=O)c1ccccc1 (stereo not given)	2.0	7.9	9.3	0.1	-17.3	x	0.4	-0.2	1.4%	-7.7
COc1ccc(S(=O)(=O)NCCSc2ccccc2)cc1OC	-3.6	x	x	x	-1.1	-2.6	x	0.3	u	17.6
O=C(NC(=S)Nc1nc2ccccc2s1)c1ccco1	1.2	-4.6	-5.0	4.9	1.2	7.1	-3.8	-2.5	x	-2.6
COc1ccc([N+](=O)[O-])cc1NC(=O)CCN1CCN(CCO)CC1	2.3	x	x	x	21.5	-6.3	1.6	0.0	-1.7%	-1.1
COc1ccc(Cn2c(CO)cnc2SCC(=O)Nc2cccc(NC(C)=O)c2)cc1	3.4	-3.0	1.1	-0.7	-17.6	5.6	3.4	0.5	1.0%	26.2
